YopH inh = YopH (Yersinia) phosphatase inhibition. fluorescence Ex485/Em525. inhibition, %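 (about 10 µM by stock and volumes)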. 140,000 compounds, 0.16% hits. AID 898;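 active = inhibition of 50% or more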;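 also: controls were vehicle for no effect and minimum signal wells for full effect; inactives centre near -20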
Arbovirus inh = arbovirus infection inhibition | AID 1251 | arbovirus infection cell-based antiviral screen | inhibition, % at 10 µM | 200,000 compounds, 0.37% hits;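 active = inhibition from about 30%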;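 also: bluetongue infection of BSR cells; cell survival read as ATP light after 72 h; 0% = infected wells without compound and 100% = uninfected wells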
Mtb bLac sens = beta-lactam sensitization of Mtb H37Rv; inhibition, % at 25 µM; AID 434955; M. tuberculosis H37Rv growth with meropenem, percent inhibition; hits of this screen are not shown here; 330,000 compounds, 0.27% hits;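 active = about 74% or more and at least 40 points above the plate without the antibiotic, then above 30% in a dose series; inconclusive = first-round hits that could not be retested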;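 also: growth measured after seven days incubation then overnight dye step; 0% = bacteria only wells and 100% = bacteria with antibiotic; twin plates without the antibiotic show which effects depend on it; some results filed as inactive read as strong as hits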
Mtb H37Rv = M. tuberculosis H37Rv growth inhibitors, H37Rv strain (AID 1626); M. tuberculosis H37Rv growth inhibition; higher % means a stronger effect; inhibition, % at 10 µM, or IC50 in µM where a hit was titrated; 220,000 compounds, 0.95% hits;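 active = confirmed in a dose series; inconclusive = inhibition above 80% but not taken into the dose series; inactive = below 80% or under 30% at every dose of the series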;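 also: bacteria incubated seven days before Alamar blue readout; 0% = bacteria only wells and 100% = bacteria with antibiotic wells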
RecA intein inh = inhibitors of M. tuberculosis RecA intein splicing; cell-free RecA intein splicing, fluorescence; inhibition, %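 (about 9 µM by stock and volumes)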; 290,000 compounds, 0.75% hits; AID 2221; in the data active = inhibition above about 30%; inconclusive = no clear call, values can overlap the other calls;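 also: 0% = vehicle wells and 100% = reference inhibitor control wells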
Target sequence (P9WHJ3 whole entry, looked up): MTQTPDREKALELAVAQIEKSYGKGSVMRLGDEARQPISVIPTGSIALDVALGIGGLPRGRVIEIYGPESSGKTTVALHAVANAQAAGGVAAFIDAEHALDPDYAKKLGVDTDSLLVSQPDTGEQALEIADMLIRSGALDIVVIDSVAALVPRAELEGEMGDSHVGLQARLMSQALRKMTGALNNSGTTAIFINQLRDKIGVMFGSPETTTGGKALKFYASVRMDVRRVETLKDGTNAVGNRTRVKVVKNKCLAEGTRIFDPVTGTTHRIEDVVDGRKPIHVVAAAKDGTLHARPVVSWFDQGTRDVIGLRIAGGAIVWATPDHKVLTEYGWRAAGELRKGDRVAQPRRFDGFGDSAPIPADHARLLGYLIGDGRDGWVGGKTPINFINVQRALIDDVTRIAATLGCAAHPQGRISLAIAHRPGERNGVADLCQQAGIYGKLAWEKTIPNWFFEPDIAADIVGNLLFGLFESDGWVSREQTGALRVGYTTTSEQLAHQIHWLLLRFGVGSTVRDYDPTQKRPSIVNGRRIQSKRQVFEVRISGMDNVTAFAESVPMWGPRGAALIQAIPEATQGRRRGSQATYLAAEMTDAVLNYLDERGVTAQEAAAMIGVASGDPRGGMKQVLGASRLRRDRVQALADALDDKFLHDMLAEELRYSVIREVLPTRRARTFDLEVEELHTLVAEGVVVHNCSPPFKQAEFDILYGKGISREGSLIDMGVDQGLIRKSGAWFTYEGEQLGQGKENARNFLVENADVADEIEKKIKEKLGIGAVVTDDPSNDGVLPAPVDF
Arbovirus inh repeat = recorded beside Arbovirus inh, whose call it bears; inhibition, %; measured here: 10K subset replicate screen; many hits read low in the repeat;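 first of two repeat runs on a subset; 0% = infected and 100% = uninfected wells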
An asterisk follows results filed as active; ? = inconclusive; / = not tested or not shown.

SMILES	YopH inh	Arbovirus inh	Mtb bLac sens	Mtb H37Rv	RecA intein inh	others
COc1ccc(Cl)cc1NC(=O)CN(C)Cc1ccc(OC)c(OC)c1	/	-6.2	-1.6	-0.2%	2.4
Cc1ccc(S(=O)(=O)Nc2ccc(Cl)cc2C(=O)c2ccc(F)cc2)cc1	-30.8	-9.0	4.0	-7.6%	22.6
Cn1c(=O)[nH]c(=O)c2c1nc(N1CCNCC1)n2Cc1ccccc1Cl	/	/	4.3	/	-0.3
Cc1cc(C)c(C)c(S(=O)(=O)N2CCN(C(=O)CCC(=O)N3CCOCC3)CC2)c1C	/	/	-4.3	-0.3%	-1.7
Cc1ccsc1/C=C(/C#N)C(=O)NCc1ccccc1	-23.7	-0.9	-3.2	-6.0%	-0.9
O=C(COC(=O)C1=COCCO1)Nc1ccc(OC(F)F)cc1	/	10.7	79.8	60.4%	0.9
COCC(=O)Oc1c(S(=O)(=O)c2ccc(C)cc2)c(C)nn1-c1ccccc1	-49.6	0.7	1.2	-1.6%	5.5
O=C(N/N=C/c1cnc(N2CCCCC2)s1)c1ccc(Cl)cc1	/	-10.2	3.8	-4.6%	-4.7
CC1Cc2nc(SCC(=O)Nc3ccccc3F)n(C)c(=O)c2S1 (stereo unspecified)	-25.7	6.2	-2.7	1.3%	2.7
Cc1cccc(CCNC(=O)Cc2ccc(NC3=NC4CS(=O)(=O)CC4S3)cc2)c1 (stereo unspecified)	/	/	-0.3	/	2.6
COC(=O)CNC(=O)c1cccc(F)c1	-25.1	3.9	5.7	-6.8%	0.9
O=C(CC(c1ccccc1)c1ccccc1)OCn1nnc2ccccc2c1=O	6.3	8.5	4.4	5.9%	8.9
CN(C)S(=O)(=O)c1ccc(Cl)c(NC(=O)COC(=O)CC(NC(N)=O)c2ccc(Cl)cc2)c1 (stereo unspecified)	/	/	-8.1	4.6%	-1.1
O=C(NCCc1ccccc1)c1ccncc1	-54.0	-0.3	/	-8.7%	1.6	Arbovirus inh repeat=0.7
NC(=S)c1cc2cc(Cl)ccc2oc1=O	/	/	-2.9	/	-0.4
CCc1nn(CC(=O)NCCCN2CCc3ccccc3C2)c(=O)c2cc3sccc3n12	-28.5	-9.8	6.0	-0.1%	4.0	Arbovirus inh repeat=-3.5
CCC1CCCCN1CCCNC(=O)Cn1c2ccccc2c2nc(=O)cc(C)n21 (stereo unspecified)	/	/	-3.9	/	-2.0
COCCNC(=O)C(c1ccc(Cl)cc1)N(CCOC)C(=O)CCC(=O)Nc1ccccn1 (stereo unspecified)	/	/	-6.8	/	-0.9
Cc1cccc(NCc2nnc(-c3ccccc3)o2)c1C	/	2.3	11.6	18.5%	-9.1
O=C(Nc1ccc2c(c1)OCCO2)C1CCN(C(=O)c2ccc(Br)cc2)CC1	-23.7	-5.8	2.4	-1.3%	2.5
Cc1cc(C)cc(NC(=O)CCc2ccc(C)o2)c1	/	/	93.0	/	-1.3
CCOc1ccc(-c2nc(C#N)c(N3CCN(Cc4ccccc4)CC3)o2)cc1	-45.3	16.9	36.8	24.7%	4.5	Arbovirus inh repeat=18.7
O=C(O)c1cccc(S(=O)(=O)NNc2ccccc2C(F)(F)F)c1	/	/	7.2	/	1.8
O=C(COc1ccccc1)Nc1nc2cc3c(cc2s1)OCCO3	/	/	?	/	3.2
Cc1cccc(C(=O)Nc2ccccc2C(=O)OCC(=O)Nc2ccc(C#N)cc2)c1	-20.5	1.4	83.0	45.0%	-1.2
CNc1cc(CS(=O)c2ccccc2)nc(-c2ccccc2)n1 (stereo unspecified)	0.3	6.6	-6.9	0.3%	0.5
Cc1cccc(OCCCn2c(=O)sc3ccccc32)c1	2.1	0.5	9.3	14.3%	13.1
Cc1ccc(C2=N/C(=C/N3CCOCC3)C(=O)O2)cc1	11.0	9.9	-2.3	-15.1%	-0.2
COc1cc(C(=O)OCC(=O)c2cc(C)n(C)c2C)cc(NC(=O)c2ccco2)c1OC	-54.0	8.6	1.8	9.7%	1.6
CCCC(=O)Oc1ccc(N(C(=O)CCC)S(=O)(=O)c2cccs2)cc1	/	22.3	-3.0	3.7%	23.2
CCN(CC)S(=O)(=O)c1cc(OCC(N)=O)c(C)cc1Cl	-24.5	-2.5	-5.5	7.3%	-1.9
COC(=O)c1cc(CNC(=O)c2cccc(Cl)c2Cl)ccc1OC	-31.6	-0.7	-0.3	0.2%	-0.3
Cn1c(/C(C#N)=C(\O)c2ccccc2Cl)nc2ccccc21	/	/	-3.0	/	17.0
Cc1nn(C)c(NC(=O)c2ccc(Cl)cc2Cl)c1Br	/	/	98.9	/	-3.3
O=C(c1cnc2sccn2c1=O)N(Cc1ccccc1)c1ccccn1	2.7	5.6	-1.7	-6.3%	-2.9
O=C(CCCN1C(=O)CCC1=O)Nc1ccc2c(c1)OCCO2	9.9	11.5	-5.4	-0.6%	3.0
CC(=O)Oc1c(S(=O)(=O)c2ccc(C)cc2)c(C)nn1-c1ccccc1	-35.5	0.6	2.6	6.2%	4.4
COc1cc(C(=O)OCC(=O)NC2CCCC2)cc(OC)c1OC	/	/	-3.9	/	0.9
COc1ccc(CCNC(=O)CSc2nc(=O)[nH]c3c2CCC3)cc1OC	/	/	2.6	/	0.5
CCOC(=O)c1c[nH]c2c(C)cc(C)cc2c1=O	-24.7	2.2	13.6	-1.8%	-1.7
Cc1cc(C)c(C)c(OCC(=O)O/N=C(\N)c2ccccn2)c1	-6.3	-10.9	1.1	-3.2%	1.8
CC(C)n1c(CN2CCN(C(=O)c3ccco3)CC2)nc2c1c(=O)n(C)c(=O)n2C	/	/	-10.4	/	1.6
CC12CCC(=O)C=C1CCC1C2CCC2(C)C(O)CCC12 (stereo unspecified)	-28.5	0.8	-1.4	-8.0%	/	Arbovirus inh repeat=3.8
COc1ccc(OC(C)C(=O)NCCC2=CCCCC2)cc1 (stereo unspecified)	/	-1.3	-7.0	7.7%	0.7
CC(C)CCN1CC(C(=O)NCc2ccccc2)CC1=O (stereo unspecified)	1.5	-1.1	2.4	-4.5%	-0.4
CCCCn1c(N)c(N(Cc2ccccc2OC)C(=O)CSCC(=O)Nc2cccc(C)c2)c(=O)[nH]c1=O	/	/	4.3	/	-4.4
CCc1ccc(NC(=O)C(C)OC(=O)c2c(C)nn(Cc3ccccc3)c2Cl)cc1 (stereo unspecified)	-46.2	13.6	-0.1	50.1%	-0.4
CCN1CCN(c2ccc(S(=O)(=O)N3CCOCC3)cc2NC(=O)/C=C/c2ccc(OC)cc2OC)CC1	/	/	6.7	/	-2.0
CCN(CC)CCN(Cc1cc2cc3c(cc2[nH]c1=O)OCO3)C(=S)NCC(C)C	/	/	-4.0	/	-2.5
O=C(CCSc1ccc(Cl)cc1)NC12CC3CC(CC(C3)C1)C2	-17.5	-27.1	99.6	7.0%	13.8
Cc1cccc(NC(=O)CN2C(=O)N/C(=C/c3cc(C)n(C(C)C)c3C)C2=O)c1	-7.8	-8.2	0.8	1.4%	-1.2
O=C(NC1CCCCC1)C1CCCN(S(=O)(=O)c2cnc[nH]2)C1 (stereo unspecified)	-50.9	5.5	9.2	-4.6%	/
Nc1c(C(=O)Nc2cccc(C(=O)O)c2)sc2nc3c(cc12)CCCC3	/	/	8.7	/	-20.8
Nc1c(Cl)cc(C2=NCCn3nc4cc(C(F)(F)F)ccc4c32)cc1Cl	/	/	98.2	/	14.4
COc1cc(/C=C/C(=O)O)cc(S(=O)(=O)NC2CC2)c1OC	-19.6	5.5	-6.9	-1.9%	-2.8
CCOC(=O)c1[nH]c2ccccc2c1NC(=O)NC1CCCCC1	-13.8	-2.7	-11.8	-0.6%	3.9
COc1ccccc1-c1c(C)oc2c(CN3CCOCC3)c(O)ccc2c1=O	/	/	-6.0	/	-3.6
COc1cc(/C=N/NC(=O)c2cccnc2)ccc1OS(=O)(=O)c1ccc(F)cc1	-38.5	0.2	22.2	-4.2%	-0.1
COc1ccccc1N1CCN(C(=O)c2coc(=O)c(Br)c2)CC1	/	/	-3.0	-5.8%	-0.9
CC1CCN(Cc2ccc(NC(=O)C3CCN(c4nnc(-n5cccc5)s4)CC3)cc2)CC1	-0.9	-20.9	-2.2	-0.9%	-0.3	Arbovirus inh repeat=-19.5

Random excerpt: 3 compounds from above.
SMILES	YopH inh	Arbovirus inh	Mtb bLac sens	Mtb H37Rv	RecA intein inh	others
CCN1CCN(c2ccc(S(=O)(=O)N3CCOCC3)cc2NC(=O)/C=C/c2ccc(OC)cc2OC)CC1	/	/	6.7	/	-2.0
CCOC(=O)c1[nH]c2ccccc2c1NC(=O)NC1CCCCC1	-13.8	-2.7	-11.8	-0.6%	3.9
COc1ccccc1N1CCN(C(=O)c2coc(=O)c(Br)c2)CC1	/	/	-3.0	-5.8%	-0.9

Next section.
SMILES	YopH inh	Arbovirus inh	Mtb bLac sens	Mtb H37Rv	RecA intein inh	others
Cc1cc(C)nc(-n2nc(C)cc2NC(=O)c2cccc(S(=O)(=O)N3CCCCC3)c2)n1	-8.9	-0.6	/	1.5%	/
O=S(=O)(NCCc1ccncc1)c1ccc(F)cc1	/	/	1.4	/	-0.6
COc1ccc(Oc2ccc(C(F)(F)F)cc2NC(=O)c2ccc(F)cc2)cc1	/	/	10.2	17.8%	14.2
O=C(O)c1cc(-c2ccc(/C=N/N3C(=O)C4C5C=CC(CC5)C4C3=O)o2)ccc1Cl (stereo unspecified)	/	4.4	3.8	-0.2%	-0.9
CC(C)CC(C(=O)O)N1C(=O)C2C3CC(C2C1=O)C1C(c2ccccc2)c2sc(=O)[nH]c2SC31 (stereo unspecified)	-36.3	-0.4	5.0	-4.5%	-4.0
C=CCN(C(=O)c1csnn1)C(C(=O)NCc1ccc(F)cc1)c1ccc(F)cc1 (stereo unspecified)	/	/	-3.9	/	1.3
O=C(CCNC(=O)c1ccco1)Nc1ccc(F)c(Cl)c1	/	/	-5.0	/	-1.0
Cc1cc2nc(-c3ccc[nH]c3=O)n(Cc3ccccc3F)c2cc1C	/	/	3.4	/	-0.3
COc1ccc(NC(=O)COC(=O)/C=C/c2ccc(OC)c(S(=O)(=O)N3CCOCC3)c2)cc1	-30.2	-8.2	11.1	-0.6%	0.7
Cc1ccc(S(=O)(=O)N2CCN(C(=O)COC(=O)c3ccc(C(C)(C)C)cc3)CC2)c(C)c1	/	/	?	/	0.4
Cc1nnsc1C(=O)Nc1ccc(S(=O)(=O)N2CCC(C)CC2)cc1	/	/	-1.9	/	-1.5
COC(=O)N1C(=O)[C@@](c2ccccc2)(C(C)C)N1C(=O)OC	/	/	-3.0	/	0.4
CC1Cc2cc(S(=O)(=O)N3CCN(c4ccccc4)CC3)ccc2N1C(=O)C1CC1 (stereo unspecified)	/	/	3.6	/	-2.0
CCOc1ccc(NC(C(=O)Nc2cccc(C(C)=O)c2)c2ccccc2)cc1 (stereo unspecified)	-2.3	2.1	96.2	>100µM*	2.8
Clc1ccc2c(NCc3ccccn3)ccnc2c1	/	/	-3.2	/	2.1

Next section; it opens with the 2 that closed the last part.
SMILES	YopH inh	Arbovirus inh	Mtb bLac sens	Mtb H37Rv	RecA intein inh	others
CCOc1ccc(NC(C(=O)Nc2cccc(C(C)=O)c2)c2ccccc2)cc1 (stereo unspecified)	-2.3	2.1	96.2	>100µM*	2.8
Clc1ccc2c(NCc3ccccn3)ccnc2c1	/	/	-3.2	/	2.1
CCc1ccc(Oc2ncnc(N)c2[N+](=O)[O-])cc1	/	10.4	3.8	-1.3%	3.6
c1ccc(CCCc2nc(-c3ccccn3)no2)cc1	-8.9	-2.0	5.3	3.6%	0.1
CCn1ncc([C@@H]2C[C@H]3CN(Cc4ccccc4C)C(=O)[C@]34CCCN24)c1C	/	8.7	-3.1	4.1%	-0.1
CCn1nnnc1SCC(=O)Nc1cc(C)on1	-22.1	-4.4	-9.3	-7.2%	-0.7
Cc1cc(C)n(-c2nc3ccccc3c(=O)n2OCc2ccc(Cl)cc2)n1	14.0	3.6	51.4	5.1%	0.0
CCCc1cc(=O)oc2cc(C)cc(OCC(=O)NCCCN3CCCC3=O)c12	/	/	3.1	/	0.6
Cc1cccc(C(=O)NN(C)c2nc(-c3ccccc3)nnc2C(F)(F)F)c1	-37.8	5.3	-0.6	2.8%	-2.7
COc1cc2nc(NC(=O)c3ccccc3)[nH]c(=O)c2cc1OC	-4.5	-11.3	11.1	-7.4%	-3.8
O=C(COC(=O)c1cc(-c2cccs2)nn1-c1ccccc1)Nc1cc([N+](=O)[O-])ccc1Cl	-25.0	-9.5	3.6	-5.7%	-4.1
Cc1cc(C)c2c(-n3cccc3)c(C(=O)NNS(=O)(=O)c3ccc(Cl)cc3)sc2n1	-44.2	1.4	-2.3	-5.1%	6.9
CN1C(=O)C2(c3ccccc31)N(C)CC(c1ccccc1)C21SC(=S)N(Cc2ccco2)C1=O (stereo unspecified)	-27.8	-2.9	/	6.4%	2.6

Screens: PubChem BioAssay, several laboratories

Only part of the results is shown; rates above refer to the full screens.
